Sfp PPTase inh: blocks B. subtilis Sfp PPTase activity | 3.5% of 310,000 active | Potency, µM, without a hit: max response, negative = inhibition, most hits filed as inhibitors | Biochemical Sfp PPTase activity, qHTS | Q9F4F7; active = well fitted inhibition curve with a large enough effect; inconclusive = small, poorly fitted or top-dose-only effect, or another doubt; inactive = no such curve, though single readings can be large or run the other way;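 also: the enzyme is Sfp with the accession as filed and its product quenches rhodamine fluorescence; potency is read from the fitted curve at half-maximal effect; 0% = enzyme reaction without inhibitor and -100% = no enzyme wells; top concentration of the series not given in the record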
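Step 1, compound plus 15 nM Sfp-PPTase, 15 min, room temperature. Step 2, add rhodamine-CoA (5 uM) and BHQ-2-YbbR (12.5 uM). Step 3, read 525/598 nm fluorescence at 0 and 30 min.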
Menin MLL FP FL: inhibitors of human menin-MLL interaction, wild-type MLL peptide | FP activity change, % at 61.4 µM | Fluorescence polarization, fluorescein-MLL peptide displacement from menin | 290,000 tested, under 10 active; inconclusive = falling polarisation curve, or a change in total fluorescence; inactive = total fluorescence flat and polarisation flat or rising; no compound was filed as active; the % refers to the polarisation; negative = inhibition;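 also: % of control where 0% means no effect; inhibitors lower the polarisation; unlabelled MLL peptide was the positive control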
gsp antagonist: antagonizes gsp, the McCune-Albright syndrome mutation; gsp-mutant cells, cAMP HTRF, 30 min; control for the full effect not named in the record; Potency, µM (highest dose often 76.9 µM), inactives show at the top dose activity change, negative = inhibition, actives largely listed as inhibitors; 0.4% of 340,000 active; AID 624288; active = falling curve of any shape with a large fitted effect; inconclusive = falling curve, mostly with a smaller effect; inactive = flat or rising curve; cell line not stated here;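 also: intracellular cAMP measured with PDE inhibitor Ro 20-1724 present during compound exposure; potency is read from the fitted curve at half-maximal effect; % is scaled to controls: 0 for no effect and ±100 for the full control effect; nearly all actives have a fitted effect of over 65% in size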
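G418-selected cells were plated in DMEM/10% FBS for 16-24 h at 37C, then treated with compounds plus the PDE inhibitor […] (300 uM solution added) for 30 min at 37C. Intracellular cAMP was measured by HTRF after 30 min lysis at room temperature.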
ClpP mod: qHTS Assay for Activators of ClpP. Potency, µM (highest dose often 57.5 µM), inactives show top-dose activity change, negative = active. 1.9% of 340,000 active. purified B. subtilis ClpP, FRET peptide cleavage, 20 min. AID 651965, 2013; active = well fitted falling curve with a large enough effect; inconclusive = small, poorly fitted or top-dose-only effect; inactive = no such curve, though single readings can be large or run the other way; also: potency is read from the fitted curve at half-maximal effect; the source files actives as falling curves though it sought activators and does not explain the sign; nearly all actives have a fitted effect of over 65% in size; many hits overshoot -100%
Target sequence (P80244 whole entry, looked up): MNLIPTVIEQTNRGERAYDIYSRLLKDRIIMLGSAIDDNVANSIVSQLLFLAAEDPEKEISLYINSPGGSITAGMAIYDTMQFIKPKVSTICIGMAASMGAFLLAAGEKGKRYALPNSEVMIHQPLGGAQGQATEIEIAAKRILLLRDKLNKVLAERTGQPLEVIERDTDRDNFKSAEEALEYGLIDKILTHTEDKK
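Purified B. subtilis ClpP, 10 microg/mL final in Tris/HCl pH8 with KCl, BSA, glycerol and Tween-20, cleaved an Abz/nitrotyrosine-quenched decapeptide. Fluorescence (ex 320, em 430) was read at 0 and 20 min at room temperature. Delta was normalized to 5.8 microM ADEP and DMSO/no-enzyme controls.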
PINK1 expr mod: modulators of PINK1 expression | PINK1 immunofluorescence, high-content cytometry, 24 h | Potency, µM (doses to about 76.6 µM), for the others: at the highest dose activation (PINK1 increase), usual class: activators | 0.2% of 410,000 active; active = well fitted activation curve with a large enough effect; inconclusive = small, poorly fitted or top-dose-only effect; inactive = flat fitted curve, though single readings scatter; cell line not stated here;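 also: potency is read from the fitted curve at half-maximal effect; % of control where 0% means no effect; nearly all actives have a fitted effect of over 65% in size; a mitochondrial uncoupler was the plate control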
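Measures PINK1 amount and localization on or inside mitochondria by immunofluorescence. Stable cells get compounds at 5 concentrations for 24 hours before fixation and staining; CCCP controls included.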
D2 agonist: human D2 receptor agonism in beta-arrestin assay; P14416; DiscoveRx PathHunter D2 beta-arrestin, luminescence, 90 min; 100% = 57 uM dopamine signal; activation, % (test concentration not listed); 0.084% of 360,000 active; AID 624465; in the data active = activation above about 40%; inconclusive = about 15% to 40%; inactive = below about 15%; also: compound concentration not given in the record; the text of the record calls up to 30% inactive
Target sequence (P14416 whole entry, looked up): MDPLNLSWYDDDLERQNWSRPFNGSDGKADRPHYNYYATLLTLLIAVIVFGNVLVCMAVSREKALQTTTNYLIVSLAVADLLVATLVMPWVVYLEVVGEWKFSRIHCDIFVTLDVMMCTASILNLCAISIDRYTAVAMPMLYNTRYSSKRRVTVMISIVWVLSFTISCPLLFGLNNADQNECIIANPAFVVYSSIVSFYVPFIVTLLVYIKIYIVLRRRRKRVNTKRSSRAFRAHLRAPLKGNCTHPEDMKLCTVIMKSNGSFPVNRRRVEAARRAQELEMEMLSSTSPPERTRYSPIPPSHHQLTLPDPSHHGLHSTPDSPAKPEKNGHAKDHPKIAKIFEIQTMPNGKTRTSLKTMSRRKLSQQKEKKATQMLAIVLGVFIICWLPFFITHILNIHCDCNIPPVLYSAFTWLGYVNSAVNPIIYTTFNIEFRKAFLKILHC
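DiscoveRx PathHunter D2 beta-arrestin cells (2,100/well) attached overnight, then compound-stimulated 90 min at 37 C in HBSS/10 mM HEPES/0.1% Tween-20 buffer; beta-galactosidase complementation read by luminescence after 1 h at ambient temperature. Dopamine 57 uM final (EC100) as control.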
gsp ag: activates gsp, the McCune-Albright syndrome mutation; gsp mutant cells, cAMP HTRF, 30 min; control for the full effect not named in the record; Potency, µM (highest dose often 76.9 µM), for the others: at the top dose activation (cAMP increase), usual class: activators; 0.13% of 340,000 active; active = well fitted activation curve with a large enough effect; inconclusive = small, poorly fitted or top-dose-only effect, or another doubt; inactive = no such curve, though single readings can be large or run the other way; cell line not stated here;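 also: phosphodiesterase inhibitor Ro 20-1724 added with compounds to block cAMP breakdown; potency is read from the fitted curve at half-maximal effect; nearly all actives have a fitted effect of over 60% in size; about a fifth of the inactives were tested at one dose only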
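Cells in DMEM/10% FBS with G418 were pretreated with compounds in DMSO plus […] (300 uM stock) for 30 min at 37C. cAMP was measured by HTRF (cAMP-d2 plus anti-cAMP antibody-K) after 30 min at room temperature.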
An asterisk follows results filed as active; u = inconclusive; x = no result given; [ ] = another dose, or the depositor's remark.

SMILES	Sfp PPTase inh	Menin MLL FP FL	gsp antagonist	ClpP mod	PINK1 expr mod	D2 agonist	gsp ag
CC(C)(C)N1OC2CC1c1nc3ccccc3n1C2 (centres undefined)	11%	3.0	4%	-4.1%	1.3%	-0.2	3%
Cc1c(C(=O)N(Cc2nccn2C)C(C)C)oc2c(F)cccc12	20%	x	6%	0.7%	0.7%	-1.5	-22%
O=C(CNC(=S)N(CCCN1CCOCC1)Cc1cccs1)NC1CCCC1	9%	1.5	9%	0.7%	2.1%	-1.6	-21%
COc1c(C)cc(Br)cc1C(=O)Nc1cccc(-c2nc3ncccc3o2)c1	-18%	5.8	u	u	-0.8%	9.7	23%
COc1ccc(-c2ccccc2NC(=O)C2CCCN(Cc3ccco3)C2)cc1 (centres undefined)	11%	x	3%	0.9%	-2.4%	-1.4	-51%[inhibitor]
Cc1[nH]c2ccccc2c1CN1CCC(CO)(Cc2ccccc2)CC1	20%	0.3	17%	-1.7%	3.4%	-3.0	6%
COc1ccc(CCNC2CC(=O)N(C3CCCCC3)C2=O)cc1OC (centres undefined)	8%	1.7	1%	0.0%	0.7%	-8.6	-4%[15.4 µM]
ClC1=CN(C2=NCCC2)CC1	x	x	x	-2.4%	-0.3%	-5.5	x
CCN1CCN(C(=O)c2cc(COc3c(C)cccc3C)on2)CC1	2%	1.0	6%	1.4%	0.1%	-2.7	28%
C=CCn1c(Cc2cccc3ccccc23)n[nH]c1=S	5%	3.2	-1%	-3.3%	-2.5%	-0.4	-8%
Cc1oc2nc(SCC(=O)N3CCCCC3)nc(N)c2c1C	11%	1.2	8%	-16%	-2.3%	-3.6	-10%[15.4 µM]
C#CCOCCOCCOCCNc1nc(N2CCN(C(=O)[C@H](CCCCN)n3cc([C@@H](N)CC(C)C)nn3)CC2)nc(N2CCN(C(=O)[C@H](Cc3ccc(O)cc3)n3cc([C@@H](N)CC(C)C)nn3)CC2)n1	20%	2.6	2%	-0.7%	-0.6%	-3.8	x
CC1CCC(NC(=O)c2cc(S(=O)(=O)N3CCCCC3)ccc2N2CCOCC2)CC1 (centres undefined)	x	x	-1%	-6.4%	-0.2%	-2.4	2%
Cn1ncc(C(N)=O)c1NC(=S)NC(=O)c1ccc(Br)o1	-87%	-1.4	4%	0.1%	-1.1%	0.8	-65%[inhibitor]
CCOC(=O)C1=C(Cc2ccc(OC)cc2)C(=O)c2ccccc2C1=O	10µM*	u	5%	2.2%	21%[38.3 µM]	5.3	9%

Fetched by structure from the entries so far (2):
SMILES	Sfp PPTase inh	Menin MLL FP FL	gsp antagonist	ClpP mod	PINK1 expr mod	D2 agonist	gsp ag
COc1c(C)cc(Br)cc1C(=O)Nc1cccc(-c2nc3ncccc3o2)c1	-18%	5.8	u	u	-0.8%	9.7	23%
COc1ccc(CCNC2CC(=O)N(C3CCCCC3)C2=O)cc1OC (centres undefined)	8%	1.7	1%	0.0%	0.7%	-8.6	-4%[15.4 µM]

Other entries
SMILES	Sfp PPTase inh	Menin MLL FP FL	gsp antagonist	ClpP mod	PINK1 expr mod	D2 agonist	gsp ag
COc1ccccc1CNC(=O)CSC1=NCCS1	0%	4.3	7%	x	2.7%	-4.5	0%[15.4 µM]
CCOCCCNC(=O)CN1C(=O)/C(=C/c2ccccc2C)Sc2ccccc21	-18%	-6.3	-7%	0.4%	1.6%	0.5	u
Cc1cccc(C)c1NC(=O)CCCCCC1NC(=O)NC1C (centres undefined)	-5%	1.9	5%	x	1.1%	-5.0	-8%[15.4 µM]
Cc1nn(Cc2ccccc2Cl)c(Cl)c1C(=O)NCCc1ccccc1	-5%	5.7	u	-0.1%	4.3%	-1.1	2%
CC1CC(C)CN(S(=O)(=O)c2ccc(C(=O)N3CC(C)OC(C)C3)cc2)C1 (centres undefined)	8%	x	-1%	-1.8%	2.8%	0.5	-29%
COc1ccc(CCCC(=O)O)c(C)c1	13%	4.1	3%	-5.2%	0.7%	-2.6	4%
Cc1ccc(NC(=O)C2CCCN(S(=O)(=O)c3cccc4nonc34)C2)cc1 (centres undefined)	7%	0.1	1%	x	14%	1.8	-21%
Cc1ccc2nc(-c3cccc(NS(C)(=O)=O)c3)cc(-c3ccccc3)c2c1	-11%	3.4	2%	-15%	-1.8%	-4.5	-84%[inhibitor]
NC(=O)c1ccccc1N/C=C/C(=O)c1ccc(Cl)cc1Cl	-7%	2.7	-9%	-1.6%	-0.4%	2.7	1%[15.4 µM]
COc1ccc(N2CC(C(=O)Nc3nc4ccc(F)cc4s3)CC2=O)c(OC)c1 (centres undefined)	-5%	7.7	-18%	-0.2%	-0.4%	-5.1	22%
CC(=O)Nc1ccc(S(=O)(=O)N2CN(c3ccc(C)cc3)c3nc4ccccc4nc32)cc1	x	x	-3%	-1.4%	5.4%	-1.1	-19%
CCOC(=O)C1=C(CN2CC(C)CC(C)C2)NC(=O)NC1c1ccc2c(c1)OCO2 (centres undefined)	6%	-3.0	-2%	x	0.9%	-7.4	-2%[15.4 µM]
CC(=O)Cc1nsc(NC(=O)c2ccc(-c3cccc(C(F)(F)F)c3)o2)n1	17%	3.5	-6%	-4.9%	4.1%	-0.5	13%
Cc1cc(C)c2c(-n3cccc3)c(C(=O)O)sc2n1	-12%	-0.1	-6%	0.7%	3.7%[38.3 µM]	1.0	-24%
c1ccc(C2=NC(c3ccccc3)CC2)cc1 (centres undefined)	x	x	x	u	3.8%	-7.7	10%
CCOc1cc(N2CCOCC2)c(OCC)cc1NC(=O)c1ccco1	14%	-2.5	3%	0.0%	0.1%	-4.9	5%[15.4 µM]
Cc1ccccc1C1(CCN2CCCCC2)CCOC(C)(C)C1 (centres undefined)	2%	4.8	18%	2.2%	-0.4%	-3.3	0%
COCCCn1c2nc3ccccc3nc2c2c(=O)n(CC3CCCO3)cnc21 (centres undefined)	6%	3.7	-8%	13µM*	-1.5%	1.0	-16%
CCOc1ccc(S(=O)(=O)n2cnc3cc(C)c(C)cc32)cc1	9%	0.4	7%	1.1%	u	1.9	11%
COc1ccccc1NC(=O)c1ccc(NC(=O)CN2CCCCC2)cc1	x	x	7%	x	1.1%	-2.7	u
Cc1ccc2c(c1)NC(=O)C(CC(=O)NCCCN1CCCC1)O2 (centres undefined)	13%	-1.1	5%	1.3%	4.5%	1.8	u
CCN(CC)c1ccc(NC(=O)C2CCCC2)cc1	-2%	1.0	-8%	-0.7%	1.6%	-2.1	-25%
CS(=O)(=O)c1nc(S(=O)(=O)c2ccc(Cl)cc2)c(N2CCCCCC2)s1	21%	2.5	-24%	0.1%	8.1%	-0.7	u
COc1ccccc1-c1cnc2c(c1)C(=O)N([C@@H](C)CO)C[C@H](C)[C@H](CN(C)C)O2	x	x	x	-19%	0.1%	-2.7	u
C[C@H](NC(=O)c1ccco1)C(=O)NCCc1ccc(S(N)(=O)=O)cc1	0%	-3.7	4%	-3.3%	-0.6%	-3.8	28%
CC(CC(C)C(=O)N1CCOCCN(C(=O)C(C)CC(C)C(=O)O)CCOCC1)C(=O)O (centres undefined)	13%	-2.0	5%	0.8%	0.4%	2.9	1%
C=CCn1c(-c2cc(OC)cc(OC)c2)n[nH]c1=S	-7%	3.6	-16%	-15%	-0.5%	1.2	-1%
O=C(Nc1cccc(F)c1)C1CCN(S(=O)(=O)c2cccc3nonc23)CC1	0%	2.4	-27%	x	-0.3%	7.1	u
Cc1cc(C(F)(F)F)c2c(C)nn(CCc3nn[nH]n3)c2n1	14%	4.9	-10%	18µM*	0.1%	-4.2	4%
O=C(NC1CCCCCC1)c1ccc(S(=O)(=O)NCc2ccco2)cc1	2%	0.5	6%	0.5%	9.8%[38.3 µM]	-0.2	5%
CCCCNC(=O)C1(C)CCCCN1C(=O)c1cc2ccccc2s1 (centres undefined)	x	x	x	0.8%	5.6%	-3.0	x
CC(C)C(=O)Nc1sc2c(c1C#N)CCCCC2	32µM*	-0.7	13%	-0.8%	0.8%	-0.7	-41%[inhibitor]
CCOc1ccc2oc(=O)cc(C)c2c1	-2%	-1.4	1%[15.4 µM]	32µM*	-2.2%	-0.8	4%
CCCOc1ccc(Br)cc1/C=N/O	u	2.0	8%	-4.6%	9.3%	-8.3	-20%
COc1cc(OC)c(C(=O)NC23CC4CC(CC(C4)C2)C3)cc1OC	1%	-1.5	-19%	-11%	1.9%	-2.3	-44%[inhibitor]
CS(=O)(=O)N(CCC(=O)O)Cc1ccccc1	22%	0.1	6%	-2.2%	1.4%	-1.5	2%
Cc1ccc(-c2nn(-c3ccccc3)cc2/C=C2\SC(=S)N(CCCCCC(=O)O)C2=O)o1	40µM*	u	16µM*	x	2.5%	3.2	1%[15.4 µM]
CC(C)(C)OC(=O)N(CCc1ccccc1)Cc1cccc(OCc2cccc(NC(=O)/C=C/c3ccccc3)c2)c1	x	x	-6%	-21%	0.2%	-0.5	x
CC(C)(C)c1cc(C(=O)NCc2ccco2)ccn1	-14%	-0.8	2%	-2.3%	15%[38.3 µM]	-2.4	-2%
CCOC(=O)C(C)OC(=O)C1=C(C)NC(=O)NC1c1ccc2c(c1)OCO2 (centres undefined)	17%	-1.3	13%	1.2%	0.3%	-7.8	29%
O=C(CCn1nnc2ccccc21)Nc1nnc(-c2ccccc2F)s1	15%	1.7	6%	-11%	-2.3%[38.3 µM]	-0.6	-17%
CN(C)c1nc(NNC(=O)c2ccccc2)nc(N(C)C)n1	x	x	2%	-3.4%	-4.4%	-2.7	-22%
O=C1CC(N2CCC(O)(c3ccc(Cl)cc3)CC2)C(=O)N1Cc1ccc(N2CCCC2=O)cc1 (centres undefined)	-3%	0.8	u	-2.9%	0.1%	1.9	9%
Cc1sc(-n2cccc2)c(C(=O)O)c1C	-6%	4.1	-7%	2.1%	0.8%	0.4	14%
CCn1c(/C=C2\C(=O)N(C)c3ccccc32)nc2ccccc2c1=O	13%	5.2	-3%	1.4%	1.2%	-4.7	-1%[15.4 µM]
CC(C)CCC1(C)NC(=O)N(CC(=O)c2ccc[nH]2)C1=O (centres undefined)	x	x	2%	x	1.0%	-2.0	-13%[15.4 µM]
CCCC(=O)NNC(=O)c1ccoc1C	6%	3.3	6%	0.6%	0.2%	-2.6	5%

Source: PubChem (National Center for Advancing Translational Sciences (NCATS))
